N370S GC – N370S glucocerebrosidase modulation, Gaucher chaperone candidate; Potency, µM (titrated, usually from 59.4 µM), inactives show at the top dose activity change, negative = inhibition, hits mostly inhibitors; N370S GC spleen homogenate, 4MU-glucoside fluorescence; AID 2101; P04062; 330,000 tested, 0.092% active;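 also: 0% = full enzyme activity and -100% = no enzyme basal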
GCN5L2 inh – inhibitors of human GCN5L2 histone acetyltransferase; Q92830; GCN5L2 HAT assay, ThioGlo1 CoA-SH fluorescence; Potency, µM (highest dose often 58.9 µM), for the others: top-dose activity change, negative = inhibition, most hits filed as inhibitors; 390,000 tested, 0.21% active
Target sequence (Q92830 whole entry, looked up): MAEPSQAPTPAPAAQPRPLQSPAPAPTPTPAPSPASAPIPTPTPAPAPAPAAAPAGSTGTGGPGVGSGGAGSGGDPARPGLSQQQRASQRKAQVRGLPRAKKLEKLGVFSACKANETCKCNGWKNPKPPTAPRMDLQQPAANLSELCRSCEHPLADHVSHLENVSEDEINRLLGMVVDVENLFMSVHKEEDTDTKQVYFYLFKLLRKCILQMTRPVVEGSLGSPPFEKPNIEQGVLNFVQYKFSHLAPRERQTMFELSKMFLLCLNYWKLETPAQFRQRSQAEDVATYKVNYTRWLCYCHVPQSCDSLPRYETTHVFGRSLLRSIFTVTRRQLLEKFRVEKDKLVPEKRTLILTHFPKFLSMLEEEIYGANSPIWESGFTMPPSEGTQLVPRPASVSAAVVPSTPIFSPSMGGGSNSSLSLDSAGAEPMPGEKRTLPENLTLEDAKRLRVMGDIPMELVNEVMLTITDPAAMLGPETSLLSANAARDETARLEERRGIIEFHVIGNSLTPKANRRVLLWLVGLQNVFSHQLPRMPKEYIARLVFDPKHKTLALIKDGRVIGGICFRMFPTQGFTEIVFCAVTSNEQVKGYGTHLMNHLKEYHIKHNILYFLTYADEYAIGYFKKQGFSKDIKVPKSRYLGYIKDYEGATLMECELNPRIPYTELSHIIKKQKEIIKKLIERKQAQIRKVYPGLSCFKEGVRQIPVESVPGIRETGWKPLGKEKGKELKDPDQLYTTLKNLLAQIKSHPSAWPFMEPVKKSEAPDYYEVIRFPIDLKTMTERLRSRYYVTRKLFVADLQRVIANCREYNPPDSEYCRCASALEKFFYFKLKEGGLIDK
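Enzyme at 20nM final was mixed with library compounds for 15 min at room temperature. Peptide H3(1-25) at 75uM, acetyl-CoA at 70uM and ThioGlo1 at 50uM were then added. Plates were read immediately and after 20 min (Ex340nm/Em540nm).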
Starred values were filed as active, the others as inactive; ? = inconclusive; / = not tested or not shown; & = joins results of further samples; [ ] = another dose, or the depositor's remark. Calls follow the shape of the dose curve; as a rule, active = well fitted curve in the direction sought with a large enough effect; inconclusive = small, poorly fitted or top-dose-only effect, or another doubt; inactive = no such curve, though single readings can be large; an effect the other way counts as inactive or inconclusive. Unless noted, % is scaled to controls: 0 for no effect and ±100 for the full control effect; potency is read from the fitted curve at half-maximal effect.

nr | smiles | N370S GC | GCN5L2 inh
1 | COc1c(C)cc(C(=O)C2CCCN(C(=O)c3snnc3C)C2)cc1C (stereo not given) | -11% | -15%
2 | CCOC(=O)c1[nH]c(C)c(CCC(=O)NC(C)c2ccccc2)c1C (stereo not given) | / | -13%
3 | CCOC(=O)NC(O)C(=O)c1ccc(F)cc1 (stereo not given) | -4% | 0%
4 | COc1ccc(C(=O)N/N=C(\C)CC(=O)Nc2cccc(C(F)(F)F)c2)cc1 | -4% | 29%
5 | O=C(NC(Cc1cccc(F)c1)C(=O)O)C1CCCCC1 (stereo not given) | / | 0%
6 | CC1CN(Cc2nc3c(c(=O)[nH]c(=O)n3C)n2CCN2CCOCC2)CC(C)O1 (stereo not given) | -9% | -2%
7 | Cc1c(NC(=O)C2CCN(S(=O)(=O)c3ccccc3)CC2)c(=O)n(-c2ccccc2)n1C | 0% | -2%
8 | CCNc1ccc(-c2nc(-c3ccccn3)no2)cc1[N+](=O)[O-] | / | -1%
9 | Cc1ccc(-c2csc(N(CC3CCCO3)C(=O)c3ccco3)n2)cc1 (stereo not given) | 0% | -12%
10 | COc1ccccc1C(=O)NCc1ccncc1 | 4%[2.35 µM] | -2%
11 | Cc1ccc2cccc(OCc3ccc(F)cc3)c2n1 | 0% | 3%
12 | COc1cc(C2C(C(C)=O)=C(O)C(=O)N2CCN2CCOCC2)ccc1O (stereo not given) | 1% | -7%[0.501 µM]
13 | CCCCN(C)C(=O)Cn1nc(-c2ccc(Cl)cc2)ccc1=O | -9% | 1%
14 | COc1ccc(N2CCN(C(c3cccs3)C(C)NC(=O)C(=O)N3CCCCC3)CC2)cc1 (stereo not given) | -5% | 1%
15 | Cc1nc2cccnc2n1-c1cccc(C(=O)NCCc2ccc(S(N)(=O)=O)cc2)c1 | / | -2%
16 | Cn1c(=O)c(C(=O)CSc2ccccc2)c(N)n(Cc2ccccc2)c1=O | -3% | -6%
17 | COCCCNC(=O)C(=O)NCCCOC(C)C | 1% | -2%
18 | COc1ccc(-c2nn(-c3ccccc3)cc2C(=O)Nc2ccccc2OC)cc1 | / | -1%
19 | COc1ccc(NC(=O)CN2C(=O)COc3ccc(C)cc32)cc1 | 3% | -1%
20 | COc1ccc(CCn2c(=N)c(C(=O)NC3CCCC3)cc3c(=O)n4cccc(C)c4nc32)cc1 | -13% | -10%
21 | CCc1ccc(S(=O)(=O)Nc2ccc(C)c(NS(C)(=O)=O)c2)cc1 | 9% | -6%
22 | CCOC(=O)/C(C#N)=C/c1cccc(F)c1 | -5% | -3%
23 | Nc1nccnc1C(=O)OCC(=O)C12CC3CC(CC(C3)C1)C2 | ? | 0%
24 | O=[N+]([O-])c1ccccc1/C=N/n1c(C(F)(F)F)n[nH]c1=S | -2% | -26%
25 | O=C(CSCC(=O)OCC(=O)c1ccc(Br)cc1)Nc1cccc2ccccc12 | 2% | -18%
26 | CCOc1ccccc1N(C(C)=O)S(=O)(=O)c1ccc(Cl)cc1 | 6% | -3%
27 | CC(=O)N=C1SC2CS(=O)(=O)CC2N1c1cccc(Cl)c1Cl (stereo not given) | 5% | 0%
28 | CCCC(=O)Nc1ccc(C(=O)O)cc1NC(=O)CCC | -6% | 1%
29 | CN(c1ccccc1C(=O)N1CCN(c2cccc(Cl)c2)CC1)S(C)(=O)=O | 5% | 2%
30 | CCCc1cc(N2CCN(c3ccccc3)CC2)n2cnnc2n1 | / | 0%
31 | CC(C)(C)c1ccc(C(=O)NNC(=O)c2cccc(-n3cnnn3)c2)cc1 | 6% | 0%
32 | O=C(O)CSc1c2ccccc2cc2ccccc12 | 26% | -10%
33 | Brc1ccc(OCCCCCN2CCOCC2)cc1 | -26% | -1%
34 | Brc1ccccc1-n1nnc(-c2cccnc2)n1 | -1% | 3%
35 | CC(C)c1nc(Cl)c(C#N)c2c1CSC(C)(C)C2 | 5% | 0%
36 | Cc1c(Cl)cccc1NC(=O)c1cnc2sc(N3CCCC3)nn2c1=O | / | -14%
37 | Cc1nnsc1C(=O)NNC(=O)c1ccc(C(F)(F)F)cc1 | -13% | -10%
38 | CCOC(=O)CNC(=O)N1CCCC(C(=O)c2cc(C)c(OC)c(C)c2)C1 (stereo not given) | -9% | 0%
39 | Oc1c(Cl)cc(Cl)cc1CNc1ccc(Br)cn1 | 8% | -2%
40 | CCOc1cccc(NC(=O)c2cccc(F)c2)c1 | -22% | -7%
41 | CC(C)C(=O)NC(=S)Nc1ccc(S(=O)(=O)NC2CCCCC2)cc1 | -13% | -7%
42 | OCCN1CCN(C2Cc3cc(Cl)ccc3Sc3ccc(Cl)cc32)CC1 (stereo not given) (tested in a mixture with another compound) | ? | -8%
43 | C=CCOc1ccc(CNC(C)(C)CO)cc1OCC | 8% | -5%
44 | C=CCc1cccc(C=Nc2ccc(Br)cc2)c1O | 15% | -3%
45 | CCOC(=O)C1=C(Nc2ccccc2)OCC1=O | 6% | -4%
46 | CCOC(=O)C1=C(C)NC(SCc2cc(=O)[nH][nH]2)=C(C#N)C1c1cccs1 (stereo not given) | -7% | -14%
47 | COc1ccc(-c2nc(C)sc2CC(=O)O)cc1 | 1% | 3%
48 | COc1cc(C)c(C(C)C)cc1S(=O)(=O)N1CCOCC1 | 5% | -1%
49 | CCOc1ccc(S(=O)(=O)N(C)C)cc1-c1nc2c(C(C)(C)C)nn(C)c2c(=O)[nH]1 | 5% | -1%
50 | CCOn1c(=O)c(-c2cc3ccccc3o2)[n+]([O-])c2ccccc21 | 6% | 0%

Other compounds
nr | smiles | N370S GC | GCN5L2 inh
51 | O=C(c1cccc(Cl)c1)N1CCn2c1nc1ccccc12 | 3% | 0%
52 | COc1ccc(C(C(=O)NC(C)(C)C)N(Cc2cccnc2)C(=O)CCC(=O)Nc2cc(C)on2)cc1 (stereo not given) | -15% | 1%
53 | Cc1ccc(C(=O)Nc2ccc3c(c2)OCO3)cc1S(=O)(=O)N1CCOCC1 | 0% | -10%
54 | CCOC(=O)C(=O)Nc1ccccc1C#N | 5% | 1%
55 | CC(SCc1ccccc1)C(=O)N/N=C/c1cccs1 (stereo not given) | 1% | -5%
56 | COc1cc(/C=C2\SC(=O)NC2=O)ccc1OCc1ccc(Cl)nc1 | 1% | 2%
57 | Cc1ccccc1NS(=O)(=O)c1cc(C(=O)Nc2cccnc2)ccc1C | -6% | -18%
58 | Cc1ccc(-c2nn(CC(=O)O)c(=O)c3ccccc23)cc1 | 1% | -5%
59 | Cc1ccc2nc(NC3=NCN(Cc4cccnc4)CN3)nc(C)c2c1 | ? | -13%
60 | COc1ccccc1CN1CC(=O)N2CSC[C@H]2C1=O | -5% | 7%
61 | CN1CCN(c2ncccc2S(=O)(=O)N2CCCCC2)CC1 | 2% | 0%
62 | Cc1cc(NC(=O)C2COc3ccccc3O2)no1 (stereo not given) | 2% | -2%
63 | Cc1ccc(CN(c2ccc(C(=O)NCc3ccc4c(c3)OCO4)cc2)S(C)(=O)=O)cc1 | 0% | 8%
64 | Cc1cc(C(F)(F)F)n2ncc(-c3ccccc3)c2n1 | 6% | -4%
65 | Cc1cc(=O)oc2cc(OC(C)C(=O)Nc3ccc(N4CCOCC4)cc3)ccc12 (stereo not given) | -3% | -1%
66 | Cc1ccc(CNC(=S)N(C)C)cc1 | 2% | -4%
67 | CC(C)NCC(O)COc1cccc2ccccc12 (stereo not given) | 2%&-6%&17%&-11%&-5%&-9% | -7%&0%&6%&-18%
68 | CCCC(=O)Nc1ccc(NC(=O)c2sc3ccccc3c2Cl)cc1 | / | 5%
69 | CC(C)(C)OC(=O)N1CCCN(C(=O)Nc2ccc(OC(F)(F)F)cc2)CC1 | 2% | -1%
70 | Cc1cc(C)nc(Nc2cccc(C(F)(F)F)c2)n1 | -2% | 0%
71 | CCn1c(SCC(=O)NNC(=O)c2ccc(OC)cc2)nnc1C(C)C | -9% | -1%
72 | CCOc1cc(S(=O)(=O)Nc2ccccn2)ccc1F | 2% | -4%
73 | CNc1nc(Cl)c(SC)c(N2CCOCC2)n1 | 2% | -7%
74 | O=C(Cn1ncc2c3ccccc3n(Cc3ccc(F)cc3)c2c1=O)N1CCN(c2ncccn2)CC1 | 10% | -8%
75 | CC1CCC2(CC1)NC(=O)N(NC(=O)c1cccc(N(C)C)c1)C2=O (stereo not given) | / | -7%

Complete entries as entered above. Screens in order: N370S GC, GCN5L2 inh
`O=C(Cn1ncc2c3ccccc3n(Cc3ccc(F)cc3)c2c1=O)N1CCN(c2ncccn2)CC1` across the screens: 10%, -8%
`Cc1cc(NC(=O)C2COc3ccccc3O2)no1` (stereo not given) across the screens: 2%, -2%

Further results.
nr | smiles | N370S GC | GCN5L2 inh
76 | COc1ccc(CCN2CC(C(=O)NCCc3ccccc3C)CCC2=O)cc1 (stereo not given) | 3% | 0%
77 | CCOC(=O)C1(Cc2ccc(Cl)cc2)CCN(C(=O)C2CCCO2)CC1 (stereo not given) | -6% | -16%
78 | CCN(CC(=O)Nc1ccc(NC(C)=O)cc1)CC(=O)Nc1cccc(Cl)c1 | 7% | -16%
79 | CC(C)c1onc(C(=O)Nc2cccnc2Cl)c1[N+](=O)[O-] | 3% | -6%
80 | Cc1ccc(C)c(OCC(=O)Nc2cc(C)on2)c1 | 1% | 1%
81 | COc1ccccc1CNC(=O)CSc1nnc2c(Cl)cc(C(F)(F)F)cn12 | 5% | -15%
82 | O=C(CNC(=O)c1ccco1)NNC(=O)c1cccc(Cl)c1 | / | -2%
83 | COc1ccc(C2SCCN2S(=O)(=O)c2ccc(NC(C)=O)cc2)cc1OC (stereo not given) | -14% | -3%
84 | O=c1sc(N2CCN(c3ccccc3F)CC2)nc2ccsc12 | -4% | -9%
85 | O=C(Cc1c(F)cccc1Cl)NNC(=S)Nc1ccc(S(=O)(=O)Nc2ncccn2)cc1 | -7% | 1%
86 | Cc1cccc(Cn2cc3c(=O)n(Cc4cccc(F)c4)nc-3c3ccccc32)c1 | 24% | -14%
87 | CCCCN(C(=O)c1cc2c(s1)CCC2)c1c(N)n(CC(C)C)c(=O)[nH]c1=O | / | -4%
88 | O=C(CNC(=O)c1cccc(F)c1)OCC(=O)N1CCCCC1 | 5% | 15%
89 | Cc1cc(OC(C)C(=O)N2CCN(c3ccccc3)CC2)c2c(C)c(C)c(=O)oc2c1 (stereo not given) | -6% | -14%
90 | O=C(COC(=O)CNC(=O)c1ccccc1)NC1CCCCC1 | / | -3%
91 | CCO[C@@H]1OC(C(=O)N2CCOCC2)=C[C@H](C2CCCCC2)[C@H]1CCCO | -4% | 5%
92 | CC(=O)c1ccc(Oc2ncnc3sccc23)c(CN2CCOCC2)c1 | 16% | -8%

Structural class, the compounds so far containing fluorine (18)
nr | smiles | N370S GC | GCN5L2 inh
3 | CCOC(=O)NC(O)C(=O)c1ccc(F)cc1 (stereo not given) | -4% | 0%
4 | COc1ccc(C(=O)N/N=C(\C)CC(=O)Nc2cccc(C(F)(F)F)c2)cc1 | -4% | 29%
5 | O=C(NC(Cc1cccc(F)c1)C(=O)O)C1CCCCC1 (stereo not given) | / | 0%
11 | Cc1ccc2cccc(OCc3ccc(F)cc3)c2n1 | 0% | 3%
22 | CCOC(=O)/C(C#N)=C/c1cccc(F)c1 | -5% | -3%
24 | O=[N+]([O-])c1ccccc1/C=N/n1c(C(F)(F)F)n[nH]c1=S | -2% | -26%
37 | Cc1nnsc1C(=O)NNC(=O)c1ccc(C(F)(F)F)cc1 | -13% | -10%
40 | CCOc1cccc(NC(=O)c2cccc(F)c2)c1 | -22% | -7%
64 | Cc1cc(C(F)(F)F)n2ncc(-c3ccccc3)c2n1 | 6% | -4%
69 | CC(C)(C)OC(=O)N1CCCN(C(=O)Nc2ccc(OC(F)(F)F)cc2)CC1 | 2% | -1%
70 | Cc1cc(C)nc(Nc2cccc(C(F)(F)F)c2)n1 | -2% | 0%
72 | CCOc1cc(S(=O)(=O)Nc2ccccn2)ccc1F | 2% | -4%
74 | O=C(Cn1ncc2c3ccccc3n(Cc3ccc(F)cc3)c2c1=O)N1CCN(c2ncccn2)CC1 | 10% | -8%
81 | COc1ccccc1CNC(=O)CSc1nnc2c(Cl)cc(C(F)(F)F)cn12 | 5% | -15%
84 | O=c1sc(N2CCN(c3ccccc3F)CC2)nc2ccsc12 | -4% | -9%
85 | O=C(Cc1c(F)cccc1Cl)NNC(=S)Nc1ccc(S(=O)(=O)Nc2ncccn2)cc1 | -7% | 1%
86 | Cc1cccc(Cn2cc3c(=O)n(Cc4cccc(F)c4)nc-3c3ccccc32)c1 | 24% | -14%
88 | O=C(CNC(=O)c1cccc(F)c1)OCC(=O)N1CCCCC1 | 5% | 15%

Screens: PubChem, National Center for Advancing Translational Sciences (NCATS)

Not all compounds are listed; most or all hits stand in other tables.
